# D2 agonist – human D2 receptor agonism in beta-arrestin assay | 0.084% of 360,000 active | activation, % (concentration not given with the values) | DiscoveRx PathHunter D2 beta-arrestin, luminescence, 90 min; 100% = 57 uM dopamine signal; in the data active = activation above about 40%; inconclusive = about 15% to 40%; inactive = below about 15%; note: compound concentration not given in the record; the text of the record calls up to 30% inactive
#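 DiscoveRx PathHunter D2 beta-arrestin cells (2,100/well) attached overnight, then compound-stimulated 90 min at 37 C in HBSS/10 mM HEPES/0.1% Tween-20 buffer; beta-galactosidase complementation read by luminescence after 1 h at ambient temperature. Dopamine 57 uM final (EC100) as control.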
# PINK1 expr mod – changes PINK1 expression; AID 624263; 0.2% of 410,000 active; PINK1 immunofluorescence, high-content cytometry, 24 h; Potency, µM (top dose mostly 76.6 µM), for the others: at the top dose activation (PINK1 increase), usual class: activators; active = well fitted activation curve with a large enough effect; inconclusive = small, poorly fitted or top-dose-only effect; inactive = flat fitted curve, though single readings scatter; cell line not stated here;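 note: potency is the fitted concentration of half-maximal effect; % of control where 0% means no effect; nearly all actives have a fitted effect of over 65% in size; a mitochondrial uncoupler was the plate control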
#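 Fluorescence from anti-PINK1 antibody, together with nuclear and cell stains, was scanned on a laser-scanning cytometer. Before staining, stable-line cells were incubated 24 hours with compounds at 5 concentrations; primary antibody 12 h at 10 degrees C.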
# Six1-Eya2 blk – Six1/Eya2 interaction inhibition. Q15475+O00167. AlphaScreen GST-Six1/His-Eya2 binding, biochemical; active compounds read low; control for the full effect not named in the record. activity change, % (test concentration not listed). 0.56% of 360,000 active. AID 651725; in the data active = activity change below about -65%; inconclusive = about -30% to -65%; inactive = above about -30%; note: % is set by controls: 0 for no effect and ±100 for the full control effect
# Target sequence (O00167 whole entry, looked up): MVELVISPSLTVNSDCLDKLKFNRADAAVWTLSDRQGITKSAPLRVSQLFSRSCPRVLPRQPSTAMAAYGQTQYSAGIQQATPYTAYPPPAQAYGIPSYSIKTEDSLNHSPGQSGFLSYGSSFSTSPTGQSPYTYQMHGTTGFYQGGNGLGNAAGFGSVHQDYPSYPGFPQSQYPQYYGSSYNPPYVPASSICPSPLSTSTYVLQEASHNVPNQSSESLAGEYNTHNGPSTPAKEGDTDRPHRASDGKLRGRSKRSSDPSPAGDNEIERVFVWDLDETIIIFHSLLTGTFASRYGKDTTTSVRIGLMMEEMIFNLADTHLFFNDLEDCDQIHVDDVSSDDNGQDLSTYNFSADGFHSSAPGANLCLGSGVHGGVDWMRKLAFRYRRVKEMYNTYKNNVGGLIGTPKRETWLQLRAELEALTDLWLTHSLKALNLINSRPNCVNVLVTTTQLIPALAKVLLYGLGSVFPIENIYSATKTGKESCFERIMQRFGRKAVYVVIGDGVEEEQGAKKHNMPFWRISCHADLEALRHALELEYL
# Target sequence (Q15475 whole entry, looked up): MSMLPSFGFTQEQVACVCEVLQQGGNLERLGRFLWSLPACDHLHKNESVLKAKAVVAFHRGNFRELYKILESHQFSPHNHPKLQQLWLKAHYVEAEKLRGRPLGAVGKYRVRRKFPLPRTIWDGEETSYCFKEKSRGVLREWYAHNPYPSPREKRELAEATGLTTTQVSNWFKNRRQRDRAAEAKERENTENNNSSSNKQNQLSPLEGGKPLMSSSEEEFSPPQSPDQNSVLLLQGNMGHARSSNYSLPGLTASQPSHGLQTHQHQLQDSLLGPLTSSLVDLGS
#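 Six1/Eya2 binding was read as AlphaScreen signal after compounds were pinned into GST-Six1 plus His-tagged Eya2 (5X stock 250/500 nM) in pH 8.0 Tris/NaCl/TCEP buffer, beads added, then incubated 1 h, 37 C, dark.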
# TRPML1 inh – inhibitors of human TRPML1 channel | Q9GZU1 | TRPML1-inducible cells, Ca2+ dye fluorescence, FDSS; active compounds read low; inhibition of EC80 agonist-evoked calcium signal | activity change, negative = inhibition, % (concentration not given with the values) | 0.02% of 390,000 active | AID 624415; in the data active means activity change below about -50%; inconclusive means about -30% to -50%; inactive means above about -30%;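 note: stimulus is agonist 54-4 at its EC80 concentration; % is set by controls: 0 for no effect and ±100 for the full control effect; the text of the record puts the active cut at -80%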
#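 Tet-induced TRPML1-DL cells loaded with Ca8 no-wash calcium dye were read kinetically on FDSS. Compound addition was followed by EC80 agonist 54-4 (4 uM final); inhibition was read over 110 s.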
# D2 PAM – potentiates the human D2 dopamine receptor allosterically; P14416; DiscoveRx D2 beta-arrestin cells, luminescence, 90 min; 100% = 57 uM dopamine signal; potentiation, % (no concentration beside the values); 0.23% of 360,000 active; AID 624464; active = potentiation of 50% or more; inconclusive = 30% to 50%; inactive = 30% or less;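 note: compound concentration not given in the record; tested on top of an EC20 dose of dopamine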
#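 PathHunter D2 cells, attached overnight at 37 deg C, received compound in DMSO plus dopamine at EC20 (50 nM final) for 90 min at 37 deg C. Beta-arrestin recruitment was read as luminescence after 1 h with detection reagent at ambient temperature.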
# TRPML1 agonist – human mucolipin-1 channel agonism | Q9GZU1 | TRPML1-expressing cells, Ca2+ dye fluorescence, FDSS; host cell line not named in the record; reference of the full effect not given here | activation, % (concentration not given with the values) | 0.12% of 410,000 active | AID 624414; in the data active = activation above about 50%; inconclusive = about 30% to 50%; inactive = below about 30%; note: 0% is about no effect; the text of the record puts the active cut at 80%
#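 Cells: TRPML1-DL, 1X Tet inducer, ~16 h at 37 degrees C/5% CO2. Dye: ABD Ca8 no-wash + quencher, 45-90 min RT. Read: 10 s baseline, compound add, 110 s agonist phase; 54-4 EC80 (4uM final), 110 s antagonist phase.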
# The depositor's hits bear a star; ? = inconclusive; / = no result given; & = joins results of further samples; [ ] = dose if it differs, or a comment. Random draw from the library; about 1% have a hit in one of these screens.
SMILES	D2 agonist	PINK1 expr mod	Six1-Eya2 blk	TRPML1 inh	D2 PAM	TRPML1 agonist
CC(C)(C)c1ccc(C(=O)OCCN2CCCCC2)cc1	-6.5	10%	-2	27	-10	0.0
O=C(N/N=C/C=C\c1ccccc1[N+](=O)[O-])c1ccco1	-2.8	2.0%	1	10	-3	0.4
O=C(Nc1ccc(S(=O)(=O)Nc2ccccn2)cc1)C(F)(F)F	-5.8	2.1%	-1	6	4	-0.8
COc1nc(N=C(N)N)nc2c(C)cccc12	-4.2	0.1%	?	-12	-20	-0.7
CCn1c(SCC(=O)Nc2nccs2)nnc1-c1ccccn1	0.9	0.2%	-17	2	-12	0.4
Oc1[nH]c2ccc(Br)cc2c1N=Nc1nn[nH]n1	-7.3	0.0%	?	29	-17	-1.0
Cc1cc(C)cc(N(C(=O)c2csnn2)C(C(=O)NC2CCCC2)c2ccccn2)c1 (stereo unspecified)	-3.1	1.4%	-1	17	-3	2.2
CC(C)CC(=O)c1c[nH]c(C(=O)N2CCN(Cc3ccccc3)CC2)c1	0.6	1.9%	6	4	-1	-0.2
COc1cc([N+](=O)[O-])ccc1NC(=O)COC(=O)C=C(C)C	5.4	5.7%	-6	7	-2	1.1
CC(=O)c1ccc(S(=O)(=O)NCCCC(=O)N(C)Cc2ccc3c(c2)OCO3)cc1	6.2	0.0%	0	-26	1	2.5
CN(C)/C=N/C(=S)Nc1ccc(Cl)cc1	0.0	0.0%	-2	4	-9	-0.5
COc1ccc(C(CC(=O)NCc2ccccc2)Sc2n[nH]c(-c3ccc(Cl)cc3)n2)cc1 (stereo unspecified)	-6.5	9.5%	0	-22	-4	1.3
CCCCN(C(=O)c1cc2c(s1)CCC2)c1c(N)n(CCC)c(=O)[nH]c1=O	4.5	2.1%	-1	3	-17	-0.7
COC(=O)c1c(NC(=O)C2(C)Cc3ccccc3C(=O)O2)sc2c1CCCC2 (stereo unspecified)	-2.5	3.9%[38.3 µM]	-13	19	-14	1.6
COc1nccnc1NS(=O)(=O)c1ccc(NCc2ccccc2O)cc1	1.8	0.7%	-21	-4	10	-0.1
Cc1ccc(NC(=O)Cn2ncc3ccccc32)c(Cl)c1	-2.5	10%	23	-9	-11	2.6
COc1ccccc1C1NC(=O)NC(C)=C1C(=O)OC1CCCCC1 (stereo unspecified)	-6.4	0.0%	4	2	-10	-0.3
O=C(CC(c1ccccc1)c1cc(Br)ccc1O)NCc1ccco1 (stereo unspecified)	-2.7	4.6%	-29	41	2	1.4
Cc1ccc(NC(=O)Cn2c(=O)c3cc(Cl)ccc3n3nncc23)cc1	/	2.9%	/	-7	/	-0.7
COc1cc(/C=N/NC(=S)NC2CC3CC2C2C=CCC32)ccc1O (stereo unspecified)	-2.7	2.5%	-12	-12	-9	3.3
CC(=O)N1CCCc2cc(S(=O)(=O)N3CCCC(C(=O)NCc4ccccc4)C3)ccc21 (stereo unspecified)	5.3	-1.2%&0.3%	0	14&7	21	-0.6&1.0
O=C(Nc1cccc(-c2ccc(N3CCCCC3)nn2)c1)C(F)(F)F	1.5	0.9%	-3	18	1	-0.3
Nc1ccccc1C(=O)NNc1ncc(C(F)(F)F)cc1Cl	-2.7	?	?	-4	-14	-0.8
CCOC(=O)c1nnn(C(CC)C(=O)Nc2ccc(F)cc2)c1C(=O)OCC (stereo unspecified)	/	2.2%	/	2	/	0.1
COc1ccc(NC2CCCN(C(=O)c3cccnc3SC)C2)cc1OC (stereo unspecified)	10	-0.1%	2	-10	-2	-0.5
COc1ccc(OCCSc2nnc(C(C)NC(=O)c3ccccc3F)n2C)cc1 (stereo unspecified)	-3.5	-0.2%	-6	6	-6	-0.8
CCOC(=O)CN1N=C(/C=C/c2ccc(OCC)cc2)CCC1=O	-0.5	2.6%	-1	4	9	-1.2
C=CCOc1c(Cl)cc(CNc2ccc3[nH]c(=O)[nH]c3c2)cc1OC	0.3	3.7%	-16	-7	-1	0.8
COc1ccc(-c2nc(CSCC(=O)NCCCN3CCCC3=O)c(C)o2)cc1OC	-8.7	-0.7%	2	0	-6	-0.5
O=c1[nH]c2c(=O)[nH]cnc2nc1-c1ccccc1	0.6	-1.5%	-11	-10	-4	-0.1
CC[C@@]1(C(=O)OC)N[C@H](CN(C)C(=O)c2ccc(F)cc2)[C@@H]2C(=O)N(C)C(=O)[C@@H]21	0.7	-1.7%	2	26	-2	0.8
COc1cc(/C=C(\C#N)C(=O)NC(C)C)cc(Cl)c1O	-9.3	-0.5%	-6	0	0	1.4
Cc1c2cnn(CC(=O)NCCN3CCOCC3)c(=O)c2c(C)n1Cc1ccccc1F	-3.6	0.1%	0	-1	-7	-0.2
CCC(=O)Nc1cccc(-c2nnc(SCC(=O)NCc3ccco3)n2C)c1	-4.9	1.5%	-13	26	-16	1.1
CCOC(=O)c1ccc(NC(=O)C2CCN(S(=O)(=O)Cc3ccccc3)CC2)cc1	/	1.2%	/	-8	/	-1.0
Cc1ccc2c(c1)NC(c1cccs1)C1=C(CC(C)(C)CC1=O)N2 (stereo unspecified)	-4.9	-0.5%	9	-3	-2	0.1
COc1ccc(NC(=O)/C=C/c2ccc(S(=O)(=O)N3CCOCC3)cc2)cc1	-1.7	5.0%	-2	-4	-4	1.3
CCCn1c(SCC(=O)Nc2sc(C)c(C)c2C(=O)OCC)nc2c1c(=O)n(C)c(=O)n2C	0.5	20%	9	3	-2	-0.2
COc1ccc(CC(N)c2csc(Nc3ccccn3)n2)cc1 (stereo unspecified)	-3.0	8.8%	-88*	8	-18	0.3
CC(=O)c1cn(N(C)c2ncc(C(F)(F)F)cc2Cl)c(=O)[nH]c1=O	-0.6	-1.6%	-11	-5	0	-0.3
CCOC(=O)c1cc(S(=O)(=O)NCc2ccc(C)cc2)[nH]n1	/	0.8%	/	8	/	0.5
Fc1ccccc1COc1ccc(Br)cc1CNCc1cccnc1	-0.9	0.4%	7	-10	-21	0.3
CN1CCN(C(CNC(=O)Nc2ccc(Cl)cc2)c2ccc(F)cc2)CC1 (stereo unspecified)	-3.5	0.1%	-2	37	-30	-0.1
O=C(NCC1CCCO1)NC1(C(F)(F)F)Oc2ccccc2O1 (stereo unspecified)	1.5	-1.5%	1	-7	2	1.9
Cc1c(C)n(Cc2ccccc2)c2ccc(C(=O)O)cc12	-3.8	-1.5%	-13	27	-3	0.3
Cc1nc2ncccn2c1-c1csc(Nc2ccc(N(C)C)cc2)n1	14	2.3%	?	18	?	2.6
Cc1ccc(C(=O)NCC(=O)OCC(=O)Nc2ccccc2C#N)s1	-0.8	1.3%	0	-1	-1	-0.1
COC(=O)c1ccc(NC(=O)CSc2nnc(COc3ccccc3)n2C)cc1	-2.7	6.8%	?	-2	-23	-0.1
COc1ccc(C(=O)N/N=C/c2cn[nH]c2-c2ccc(OC)cc2OC)cc1	-4.8	0.0%	-12	9	-37	0.4
COc1cccc(-n2c(C)cc(/C=C3/C(=N)N4C(=NC3=O)SN=C4S(C)(=O)=O)c2C)c1	1.5	1.0%	-22	19	-4	4.5
COc1ccc(CCNC(=O)CSc2ccc(-c3ccncc3)nn2)cc1	-1.6	0.9%	9	2	-9	0.4
Cc1ccsc1C(=O)NCCc1ccco1	-0.8	-0.1%	-13	-2	-2	-0.7
CS(=O)(=O)c1ccc(Cl)c(NC(=O)CSc2nncn2-c2ccccc2)c1	5.7	1.3%	0	5	-11	-0.4
O=C(C1CCCN1S(=O)(=O)c1ccc(Br)cc1)N1CCOCC1 (stereo unspecified)	-2.6	0.4%	8	-1	4	-1.0
COc1ccc(Cl)cc1NC(=O)CN(C)C(=O)c1cc(=O)c2ccccc2o1	-6.7	1.1%	-16	6	-1	-0.2
Cc1noc2ncnc(Sc3c(Cl)cccc3Cl)c12	5.7	0.8%	9	7	15	0.5
O=C(c1ccncc1)N1CCN(S(=O)(=O)c2ccccc2F)CC1	-2.5	-0.1%	2	13	-14	0.0
CN1CCC(CC(C(=O)N2CCCC2)(c2ccccc2)c2ccccc2)C1 (stereo unspecified)	-1.7	-3.2%	4	-12	-10	-0.3
Cc1cc(=O)[nH]c(S/C=C/c2ccccc2)n1	-0.1	-1.0%[38.3 µM]	3	7	-4	-0.3
COc1ccc(S(=O)(=O)/N=C2\C=C(Nc3ccc(O)cc3)C(=O)c3ccccc32)cc1	-4.9	-0.8%	?	45	15	4.5

# (next part)
SMILES	D2 agonist	PINK1 expr mod	Six1-Eya2 blk	TRPML1 inh	D2 PAM	TRPML1 agonist
O=C(COC(=O)c1ccc(Cl)nc1)NNC(=O)c1ccc(Br)cc1	-1.9	0.1%	1	29	-4	1.2
CC1CC(C)CN(S(=O)(=O)CC23CCC(CC2=O)C3(C)C)C1 (stereo unspecified)	-1.1	0.2%	1	-2	-3	1.4
CCCC(=O)N(c1ccc(F)cc1)C1C=CS(=O)(=O)C1 (stereo unspecified)	-1.3	8.9%[38.3 µM]	5	32	-11	0.9
O=C(O)COn1c(-c2ccccc2)nc2ccc(Cl)cc21	0.6	4.0%	7	13	17	-0.7
Nc1nc(Cl)cc(Oc2ccc(Cl)cc2)n1	-19	-0.2%	8	21	-8	1.9
COc1ccc(CN2CCN(c3ncccn3)CC2)c(OC)c1	45*	1.8%	-1	8	16	-0.2
COc1ccc(-n2c(O)c(C=NCc3ccccn3)c3ccccc3c2=O)c(OC)c1	-3.3	-2.4%	0	-15	-9	1.2
CCOC(=O)c1sc2ccccc2c1S(=O)(=O)Nc1c(C)cccc1C	/	1.7%	/	55	/	1.4

# Single records, as listed above. Order of values: D2 agonist	PINK1 expr mod	Six1-Eya2 blk	TRPML1 inh	D2 PAM	TRPML1 agonist
# `O=C(COC(=O)c1ccc(Cl)nc1)NNC(=O)c1ccc(Br)cc1` is listed with -1.9	0.1%	1	29	-4	1.2
# `COc1ccc(-n2c(O)c(C=NCc3ccccn3)c3ccccc3c2=O)c(OC)c1` is listed with -3.3	-2.4%	0	-15	-9	1.2
# `CCOC(=O)c1sc2ccccc2c1S(=O)(=O)Nc1c(C)cccc1C` is listed with /	1.7%	/	55	/	1.4
# `CC1CC(C)CN(S(=O)(=O)CC23CCC(CC2=O)C3(C)C)C1` (stereo unspecified) is listed with -1.1	0.2%	1	-2	-3	1.4
# `Nc1nc(Cl)cc(Oc2ccc(Cl)cc2)n1` is listed with -19	-0.2%	8	21	-8	1.9
